# VACV Venus inh: vaccinia inhibition (Venus reporter); Vaccinia virus Venus reporter expression, fluorescence; Potency, µM (series often up to 36.5 µM), for the others: at the top dose activity change, negative = inhibition, hits mostly inhibitors; 0.46% of 330,000 active; active means well fitted inhibition curve with a large enough effect; inconclusive means small, poorly fitted or top-dose-only effect; inactive means no such curve, though single readings can be large or run the other way; tested in A549 cells; further: nearly all actives have a fitted effect of over 30% in size; inactives centre near -10
# VACV mCherry inh: inhibitors of vaccinia virus infection (mCherry reporter signal) | Vaccinia virus mCherry reporter infection, fluorescence; about a quarter of the inactives have no number | Potency, µM (highest dose often 36.5 µM), inactives show at the top dose activity change, negative = inhibition, usual class: inhibitors | 0.63% of 310,000 active | AID 720579; active = well fitted inhibition curve with a large enough effect; inconclusive = small, poorly fitted or top-dose-only effect; inactive = no such curve, though single readings can be large or run the other way; tested in A549 cells; further: nearly all actives have a fitted effect of over 35% in size; inactives centre near -10
# Starred values were filed as active, the others as inactive; i = inactive; ? = inconclusive; / = no result given; & = joins results of further samples; [ ] = remark or other dose. On the % scale 0 is the no-effect control and ±100 the full control effect; potency means the concentration at half of the fitted maximal effect.
# Under each structure: VACV Venus inh, VACV mCherry inh
> Cc1cc(C2=NNC(=NC3CC3)SC2)c(C)n1Cc1ccco1
  -19%, -9%
> C/C=C(\C)CN1CCC(n2nccc2NC(=O)CCOc2ccccc2)CC1
  -23%, -16%
> O=C(Cc1ccccc1)NCC(=O)OCC(=O)c1ccc([N+](=O)[O-])cc1
  -2%, -10%
> Cc1ccc(SCc2nc3ccccc3[nH]2)cc1
  -11%, -3%
> CC(=O)OC1CC(C)(C)N(OC(=O)c2ccccc2)C(C)(C)C1
  -12%, -9%
> Cc1nc(SCN2C(=O)c3ccccc3C2=O)n[nH]1
  -21%, -16%
> CCCS(=O)(=O)NC(=O)C1(C)CCN(C(=O)c2ccc(OC)cc2)C1 (centres undefined)
  0%, 3%
> Nc1c2c(nc3ccccc13)N(C1CCCCC1)CC2
  ?, ?
> Cc1ccc(C(=O)Nc2ccccc2C(=O)N2CCCC2)cc1[N+](=O)[O-]
  -5%, i
> O=C(CN1C(=O)NC2(CCCC2)C1=O)NCCc1ccc(Cl)cc1Cl
  -11%, -25%
> NC(=O)c1ncc(C(F)(F)F)cc1Oc1cccc(F)c1
  0%, i
> C=C1[C@@H](C)[C@H]2[C@H](Cc3ccccc3)NC(=O)[C@]23[C@H](OC(C)=O)/C=C/[C@](C)(O)C(=O)[C@@H](C)C/C=C/[C@H]3[C@@H]1O
  -26%, -41%
> NC(c1csc(Nc2ccc(C(=O)c3ccccc3)cc2)n1)C1CCCCC1 (centres undefined)
  ?, ?
> COc1ccc(CNc2ncnc3c2c(-c2ccccc2)cn3-c2cccc(C)c2)cc1
  -14%, -9%
> COC(=O)c1ccc(Cn2c(C)c(C(=O)NCc3cccs3)sc2=O)o1
  -2%, 39%[activator]
> Cn1c(=O)c2c(ncn2CC(=O)OCC(=O)NCCc2ccccc2)n(C)c1=O
  -2%, i
> COc1ccccc1CN(C(=O)c1cnccn1)C(C(=O)NC1CCCCC1)c1cc(OC)c(OC)c(OC)c1 (centres undefined)
  -7%, -11%
> CCOC(=O)c1c(C)[nH]c(C)c1C(=O)COC(=O)c1cccc(S(=O)(=O)NC)c1
  -20%, -5%
> O=C(CNC(=O)c1ccco1)OCc1ccc(C(=O)Oc2ccccc2)cc1
  -16%, i
> COC(=O)[C@@]1(Sc2ccc(OC)cc2)CC(=O)N[C@@H]1c1ccccc1
  -2%, -3%
> CCOC(=O)C1=C(COC(=O)c2ccc(C)c(S(=O)(=O)N3CCOCC3)c2)NC(=O)NC1C (centres undefined)
  -11%, -18%
> CC/C=C/C(=O)N1CC2(CC(c3cccc(NC(=O)CC)c3)=NO2)C[C@H]1C(N)=O (some centres undefined)
  -11%, -12%
> CCC1=C(OC(=O)N(CC)CC)N2C(=O)OC(=NCCc3c[nH]c4ccccc34)[C@]2(Cc2ccccc2)[C@H]2C1=CC[C@H]1C(=O)N(c3ccccc3)C(=O)[C@H]12
  -24%, -3%
> CCc1nc2ccc(C(=O)NCCN3CCNC3=O)cn2c1N(C)Cc1ccc(OC)cc1
  -5%, 13%
> CCOC(=O)c1[nH]c(C)c(C(=O)Nc2ccc(C)cc2C)c1C
  -14%, -19%
> O=c1[nH]nc2c3ccccc3occ1-2
  -2%, -6%
> O=C1Cc2ccccc2C(=O)N1OCc1ccc(Cl)cc1
  -3%, -4%
> O=C(c1ccccc1)N1CCN(C(=O)c2ccc3c(c2)OCCO3)CC1
  8%, -4%
> CC(NC(=O)C12CC3(C)CC(C)(CC(C)(C3)C1)C2)C(=O)O (centres undefined)
  -3%, -5%
> CC1CCc2nc(NC(=O)c3ccco3)sc2C1 (centres undefined)
  ?, -11%
> COC(=O)C1=C(c2ccc(C(C)=O)cc2)C[C@@H]2CC[C@H]1N2C(=O)NCCO
  -5%, i
> C[C@@H]1CN([C@H](C)CO)C(=O)c2c(c3ccccc3n2C)-c2ccccc2CO[C@@H]1CN(C)S(=O)(=O)c1cccs1
  -24%, ?
> Cc1cc(C)cc(-n2ccnc2SCC(=O)Nc2nccs2)c1
  -17%, /
> Cc1ccc(-c2cc(C(=O)NCCN3CCOCC3)no2)cc1
  -21%, -7%
> COc1ccc(OC)c(S(=O)(=O)Nc2cc3c4c(c2)CC(=O)N4CCC3)c1
  -15%, -19%
> Cc1cc(C(F)F)n2ncc(C(=O)NCCc3ccccc3Cl)c2n1
  -14%, -19%
> COCCn1c(=O)[nH]c2cc(C(=O)N3CCN(c4ccc(OC)cc4)CC3)ccc2c1=O
  -10%, -6%
> Cn1c(=O)c2c(ncn2CC(=O)OCC(=O)NNC(=O)c2ccc(Cl)cc2)n(C)c1=O
  -7%, -22%
> O=C(Cc1ccccc1)NCC(=O)N1CCN(c2ccccc2F)CC1
  -19%, i
> Cc1noc(C)c1C(=O)OCC(=O)NC1CC1
  -6%, /
> CCC1=[N+](C)c2cccc3cccc(c23)N1C
  5%, -10%
> CCOC(=O)Cc1csc(NS(=O)(=O)c2ccc3c4c(cccc24)C(=O)N3CC)n1
  -20%, i
> CC1(C)CC(NC(=O)c2c(N)no[n+]2[O-])CC(C)(C)N1
  -8%, 3%
> O=C(N1CCN(c2ccccc2F)CC1)C1(S(=O)(=O)c2ccc(Cl)cc2)CC1
  -11%, -28%
> Nc1nnnn1/N=C/C(Br)=C/c1ccccc1
  ?, ?
> CN(CC(=O)Nc1ccc2c(c1)OCCO2)S(=O)(=O)c1ccc(F)cc1
  -6%, i
> CC(C)(C#CCN1CCCCC1)OCCOC(c1ccccc1)c1ccccc1
  -22%, -27%
> CCOc1cc(C2CC(=O)N3CN(C4CCCCC4)CSC3=C2C#N)ccc1O (centres undefined)
  -6%&4%, 1%&-23%
> O=c1c(N2CCN(c3cccc(Cl)c3)CC2)csc2ccccc12
  ?, ?
> O=C(Nc1cccc(C(F)(F)F)c1)c1ccc(F)c(S(=O)(=O)N2CCc3ccccc3C2)c1
  -18%, i

# (further entries)
# Under each structure: VACV Venus inh, VACV mCherry inh
> CN(C)CCCOc1nn(Cc2ccccc2)c2ccccc12
  -10%, i
> CCOc1ccc(S(=O)(=O)N(C)c2ccc(OCC(=O)N3c4ccc(C)cc4C4CN(C)CCC43)cc2)cc1 (centres undefined)
  0%[7.34 µM], -2%[7.34 µM]
> O=C1CC(N2CCN(c3ccc(S(=O)(=O)N4CCOCC4)cc3)CC2)C(=O)N1Cc1ccccc1 (centres undefined)
  -12%, /
> COC(=O)c1c(C)[nH]c(C(=O)C(C)OC(=O)c2cnc(C)cn2)c1C (centres undefined)
  -11%, -11%
> COc1cc(CC(=O)OC2CCOC2=O)cc(OC)c1OC (centres undefined)
  -6%, -13%
> O=C(Cc1ccc(F)cc1)OCn1nnc2ccccc2c1=O
  0%, -14%
> COc1ccccc1NC(=O)c1cccc(NC(=O)c2ccco2)c1
  -11%, /
> CCC(C)(C)NC(=O)C(c1ccccc1Cl)N(C(=O)CCC(=O)Nc1cc(C)on1)C1CC1 (centres undefined)
  -21%, i
> NC(=NCCc1c[nH]c2ccccc12)NS(=O)(=O)c1cc(F)ccc1F
  -18%, -6%
> CCOC(=O)C1=C2SCC(=O)N2C(N)=C(C#N)C1
  10%, -8%

# Part of the list above, with each value named:
O=C(Cc1ccc(F)cc1)OCn1nnc2ccccc2c1=O
  VACV Venus inh: 0%	VACV mCherry inh: -14%

COc1ccccc1NC(=O)c1cccc(NC(=O)c2ccco2)c1
  VACV Venus inh: -11%	VACV mCherry inh: /

CCC(C)(C)NC(=O)C(c1ccccc1Cl)N(C(=O)CCC(=O)Nc1cc(C)on1)C1CC1 (centres undefined)
  VACV Venus inh: -21%	VACV mCherry inh: i

NC(=NCCc1c[nH]c2ccccc12)NS(=O)(=O)c1cc(F)ccc1F
  VACV Venus inh: -18%	VACV mCherry inh: -6%

# Carrying on:
SMILES	VACV Venus inh	VACV mCherry inh
COc1ccc(N2CCN(S(=O)(=O)CCNC(=O)COc3ccccc3F)CC2)cc1	-5%	-7%
COC(=O)C1=C(C)N(CCCCCC(=O)O)C(=O)NC1c1ccccc1 (centres undefined)	-15%	-5%
CN(C)c1ccc(C=c2c3cc([N+](=O)[O-])ccc3n3c2cc(-c2ccccc2)[n+]3C)cc1	8%	42%[activator]
CC(=O)N[C@@H](CC(=O)N[C@H](CCC(=O)O)C(=O)O)C(=O)O	-12%	-15%
O=C(COC(=O)CSc1nnc(-c2ccc(Cl)cc2)o1)NCc1ccc2c(c1)OCO2	-7%	/
Cc1ccc(Nc2ncnc3c2oc2ccccc23)cc1	-18%	/
O=C1C=C(c2ccc3[nH]ccc3c2)C[C@@H](c2ccc(Cl)cc2)C1	?	?
O=C(CSc1ncnc2c1oc1ccccc12)c1cccs1	-13%	/
Cc1cccc(C)c1NCc1n[nH]c(=S)n1-c1ccccc1	-3%	-6%
CC(=O)c1ccc(OCCCC(=O)NC2CCC(C)CC2)cc1 (centres undefined)	10%	14%
CN(C)c1ccc(CN2CCc3nc(N4CCN(c5ccccn5)CC4)ncc3C2)cc1	-27%	?
O=c1nc(Nc2ccc([N+](=O)[O-])cc2)[nH]c(=O)[nH]1	-14%	-1%

# Next part, overlapping the part above by two compounds.
SMILES	VACV Venus inh	VACV mCherry inh
CN(C)c1ccc(CN2CCc3nc(N4CCN(c5ccccn5)CC4)ncc3C2)cc1	-27%	?
O=c1nc(Nc2ccc([N+](=O)[O-])cc2)[nH]c(=O)[nH]1	-14%	-1%
CCOc1ccc2nc(N3CCCN(C(=O)Nc4ccccc4C)CC3)c(C#N)cc2c1	-15%	-21%
Cc1ccc(SCCNC(=O)C(CO)(CO)CO)cc1	-15%	-4%
Cc1ccc(NC(=O)CN2C(=O)COc3ccc(S(=O)(=O)N4CCCC4)cc32)c(C)c1	-13%	i
CCN(CC)S(=O)(=O)c1ccc(N2CCOCC2)c(NC(=O)CC23CC4CC(CC(Br)(C4)C2)C3)c1	-14%	-19%
CCN(C(=O)c1cn(-c2ccc(OC)cc2)c(=O)c2ccccc12)c1cccc(Cl)c1	-7%	-9%
CN1c2ccccc2C(O)=C(C(=O)Nc2ccccc2)S1(=O)=O	-4%	1%
CCN1C[C@]2(C)CC[C@H](O)[C@]34C1[C@H](C[C@H]23)[C@@]1(O)C[C@H](OC)[C@H]2C[C@@H]4[C@@H]1C2O (some centres undefined)	-12%	-14%
CC(C)C[C@@H](CN1CCCC1CN1C(=S)NC[C@@H]1Cc1ccccc1)N1C[C@H](Cc2ccccc2)N(CC2CCCCC2)C1=S (some centres undefined)	-3%	-6%
O=C(O)CCCn1cc(NC(=O)COc2ccc(F)cc2F)cn1	-5%	-16%
CC(C)(C)OC(=O)C[C@H]1C/C=C\C[C@H](CC(=O)N(CCO)Cc2ccccc2)C(=O)NCCOC1=O	-9%	-19%
COc1ccc(C(=O)c2sc3nc(-c4ccc(F)cc4)ccc3c2N)cc1	-15%	-29%
CCc1ccc(CNC(=O)c2cc3n(n2)CCCN(Cc2ccccc2)C3=O)cc1	-11%	-10%
CCOC(=O)c1sc(NC(=O)CN2C(=O)NC3(CC(C)CC(C)(C)C3)C2=O)c(C(=O)OCC)c1C (centres undefined)	-6%	-15%
O=C(COC(=O)c1ccc(O)cc1)NCc1ccc2c(c1)OCO2	-10%	-24%
COC(=O)C(O)(c1ccc(NC(=O)NC2CCCCC2)cc1)C(F)(F)F (centres undefined)	-8%	i
N/C(=N\OC(=O)c1cc(-c2ccccc2)nc2ccccc12)c1ccccn1	-27%	-20%
C[C@@H]1CCCCO[C@@H](CN(C)S(=O)(=O)c2cccs2)[C@@H](C)CN([C@H](C)CO)C(=O)c2cc(NS(=O)(=O)c3ccccc3)ccc2O1	-22%	-15%
CCOC(=O)N1CCN(c2nnc(-c3ccc(C)cc3)c3ccccc23)CC1	-28%	-1%
CCCc1nnc(SCC(=O)Nc2ccc3c(c2)OCCO3)n1CCOC	-9%	-13%
Cc1nc(C)n(CC(=O)c2ccc(Cl)cc2Cl)n1	-16%	-16%
O=C(NCCc1ccccc1)c1ccc(S(=O)(=O)N2CCCCC2)cc1	-13%	-8%
Cc1ccc(C(=O)N/C(=C\c2ccc(-c3ccc(Br)cc3)o2)C(=O)NC2CCS(=O)(=O)C2)cc1 (centres undefined)	-18%	-14%
c1nc(SSc2ncc3n[nH]nc3n2)nc2n[nH]nc12	3%	43%[activator]
CCCc1[nH]n(-c2ccc(F)cc2)c(=O)c1C=Nc1ccc(C)cc1	-12%	-21%
Cc1[nH]c2ccc(F)cc2c1CCN(Cc1ccncc1)C(=S)Nc1ccc(F)cc1	-15%	-11%
CC(=O)N1CCCc2cc(S(=O)(=O)N3CCCC(C(=O)Nc4ccc(C)cc4C)C3)ccc21 (centres undefined)	-11%	-14%
CC(C)(C)OC(=O)N1CCC(C(=O)Nc2cccc(C(=O)NCCCc3ccccc3)c2)CC1	-20%	-13%
O=C(O)c1cc(/C=C/c2ccc(N3CCOCC3)cc2)nc2ccccc12	-1%	i
Cc1cc(CNC(=O)C2(C(F)(F)F)C/C(=C\Cc3ccccc3)CCCO2)nn1C (centres undefined)	-11%	0%
Brc1ccc(-c2noc3c2-c2nc(C4CCCCC4)sc2CC3)cc1	-23%	-23%
O=C(c1cc(Cl)ccc1OCc1ccccc1)N1CCOCC1	-6%	0%
CCC1=Nc2cc(C(=O)NCc3ccco3)ccc2Sc2ccc(Cl)cc21	?	-4%
O=C(CCC1CCCCC1)NCc1cccs1	-13%	-13%
COC(=O)C1CCN(S(C)(=O)=O)CC1	-7%	-18%
CCC(=O)N1CCc2cc(Br)cc(S(=O)(=O)CCC(=O)NCCc3ccc(OC)c(OC)c3)c21	-3%	-13%
OCCN(Cc1ccccc1)Cc1ncccc1O	-4%	-1%
